Screening results from PubChem BioAssay.
Vif TR-FRET = inhibitors of Vif binding to APOBEC3G peptide, primary screen, biochemical, TR-FRET, GST-Vif 1-94, biotin-A3G peptide, dose response retest (AID 1117319); inhibition, %; hits with a dose series show IC50 in µM; 260,000 tested, 0.57% active; TR-FRET GST-Vif / biotin-A3G peptide binding; higher % means a stronger effect; test concentration not given here; strong numbers were not always called active;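 active = above the screen mean plus three standard deviations and confirmed in dose response; inconclusive = results disagree or hit not tested in dose response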;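 note: Vif residues 1-94 fused to GST binding biotinylated APOBEC3G peptide 110-148; 0% = full assay without inhibitor and 100% = GST in place of GST-Vif; retest series ran down from 100 µM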
Calb FLC = affects C. albicans growth with fluconazole. C. albicans CaCi-2 (fluconazole-resistant clinical isolate) + fluconazole, Alamar Blue growth, 48 h. growth inhibition, % (no concentration beside the values). 300,000 tested, 0.57% active. AID 1979;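 active = most replicates above 75%; inconclusive = exactly half above 75%; inactive = most below 75%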;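 note: all wells also contain fluconazole at 8 µg/ml as a sub-toxic cotreatment; 0% = median of DMSO wells and 100% = median of geldanamycin control wells; wells of about 8 µL received 7.5 nL stock; the first replicate is given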
RanGTP-Impb inh = inhibitors of RanGTP-importin-beta interaction, primary screen, biochemical, FRET, CFP-Ran, YFP-importin-beta, homogeneous; AID 2216; cell-free CFP-Ran/YFP-importin-beta FRET ratio; inhibition, % (test concentration not listed); 300,000 tested, 1.1% active;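 active = most replicates above 15%; inconclusive = exactly half above 15%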;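 note: 0% = DMSO wells and 100% = Ran loaded with GDP instead of GTP; wells of about 40 µL received 100 nL stock; the first replicate is given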
T cruzi repl = T. cruzi replication inhibition | T. cruzi beta-gal in NIH3T3, luminescence, 90 h | inhibition, % (concentration not given with the values) | 300,000 tested, 1.4% active | AID 1885;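 active = mean inhibition across valid replicates above about 55%, limit read from the data; inconclusive = mean below that limit but half or more replicates reach it; inactive = mean below it, under half of replicates reach it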;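 note: signal also drops with host cell toxicity which is not excluded here; 0% = plate median of DMSO wells and 100% = zero luminescence signal; higher percent means less beta-gal luminescence so fewer parasites; stock transfer was 50 nL into about 50 µL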
Beta apoptosis = beta cell apoptosis inhibition; INS-1E cytokine-induced death, ATP luminescence, 48 h; percent of positive-control rescue, neutral wells zero; protection from apoptosis, % (no concentration beside the values); 300,000 tested, 0.8% active; AID 435005;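 active = all replicates at 75% or more, or half of them and the mean; inconclusive = half reach 75% but not the mean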;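 note: 0% = cytokine-treated negative control wells and 100% = positive control rescue; higher means more ATP so stronger rescue from cytokine killing; wells of about 40 µL received 100 nL stock; the first replicate is given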
MLL AF4-AF9 inh = MLL-AF4/AF9 protein interaction inhibition. P42568. AlphaScreen, biotin-AF4 peptide binding to FLAG-AF9. inhibition, % at 10 µM. 350,000 tested, 0.47% active;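 active = every replicate reaching a set inhibition limit, whatever the replicate mean, cut at about 25% in these data; inconclusive = mean inhibition reaches that limit but some replicates miss it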;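 note: 0% = plate neutral control median and 100% = total signal loss; the record names both 10 and 1 µM as test concentration; the first replicate is given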
Target sequence (P42568 whole entry, looked up): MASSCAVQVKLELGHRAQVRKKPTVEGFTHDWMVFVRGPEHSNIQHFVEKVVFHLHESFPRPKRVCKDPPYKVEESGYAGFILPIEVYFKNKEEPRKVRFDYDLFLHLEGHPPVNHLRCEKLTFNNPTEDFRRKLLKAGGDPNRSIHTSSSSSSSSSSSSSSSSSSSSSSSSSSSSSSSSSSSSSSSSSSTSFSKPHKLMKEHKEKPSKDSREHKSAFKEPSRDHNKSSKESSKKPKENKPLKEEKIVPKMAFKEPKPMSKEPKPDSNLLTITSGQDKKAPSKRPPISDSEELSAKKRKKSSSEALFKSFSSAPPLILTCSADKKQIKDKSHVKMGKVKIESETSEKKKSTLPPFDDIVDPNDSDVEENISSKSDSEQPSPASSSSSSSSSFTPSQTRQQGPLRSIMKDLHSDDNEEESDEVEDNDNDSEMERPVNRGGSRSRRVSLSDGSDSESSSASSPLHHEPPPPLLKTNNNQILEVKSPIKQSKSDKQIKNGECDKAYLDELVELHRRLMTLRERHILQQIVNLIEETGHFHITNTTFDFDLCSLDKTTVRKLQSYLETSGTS
Ecoli rRNA inh = inhibits bacterial ribosomal RNA function over humanized ribosomes; E. coli WT GFP vs humanized-ribosome RFP mutants, fluorescence, 24 h; hits give low values; DMSO median 0, no signal -100; GFP signal change (wild-type ribosome), % (concentration not given with the values); 350,000 tested, 1.6% active; AID 720706;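 active = significant combined selectivity score with lowered wild-type GFP, culture density cut under 30%, mutant RFP and density less affected; inactive = any of these conditions unmet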; note: one replicate is shown; some compounds called inactive have numbers as strong as hits
A1 inh = inhibitors of the anti-apoptotic protein A1, read as caspase activation | AID 2462 | MEF A1-2A-BIM cells, Caspase-Glo 3/7 luminescence, 3 h; percent of clofoctol response, vehicle zero | 330,000 tested, 0.066% active | caspase activation, % (concentration not given with the values);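 active = over half of replicate activation scores above 10%, or exactly half above 10 with the replicate mean above 10; inconclusive = replicate mean below 10 yet half the replicates above 10; inactive = over half of replicates below 10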;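 note: wells of about 30 µL received 50 nL stock; many hits fall short of the cut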
Ecoli rRNA inh OD600 = further read-out of Ecoli rRNA inh, marked with its call; OD600 change, %; measured here: OD600 growth;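 optical density of the mix in the first replicate; 0 = DMSO median and -100 = no signal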
Ecoli rRNA inh RFP = further read-out of Ecoli rRNA inh, marked with its call; RFP signal change, %; measured here: RFP humanized mutant strains;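 first replicate; 0 = DMSO median and -100 = no signal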
Starred values were filed as active, the others as inactive; ? = inconclusive; nt = not tested or not shown; & = joins results of further samples. This is a subset (hit frequency here may not be typical).

Each structure is followed by: Ecoli rRNA inh RFP, MLL AF4-AF9 inh, RanGTP-Impb inh, Vif TR-FRET, Calb FLC, Beta apoptosis, Ecoli rRNA inh OD600, A1 inh, T cruzi repl, Ecoli rRNA inh
> Cc1nc(CNC(=O)CC2C(=O)NCCN2Cc2ccc(F)cc2)cs1 (centres undefined)
    1.7, 1.8, -0.5, nt, 4, 5, 18, 1.8, -4, 11
> COc1ccccc1NS(=O)(=O)c1cccc(NC(=O)CCNC(=O)c2ccccc2OC)c1
    nt, -2.4, nt, 4%, nt, 0, nt, 0.2, nt, nt
> COc1ccccc1N(C(=O)c1snc(C(N)=O)c1N)C(C(=O)NC1CCCC1)c1ccco1 (centres undefined)
    nt, nt, 3.4, 2%, 10, nt, nt, -0.9, 19, nt
> CCn1c(SCC(=O)N2CCCCC2C)nc2c1c(=O)n(C)c(=O)n2C (centres undefined)
    -0.5, -21, -7.1, nt, -15, 5, 0, -0.1, -11, -1
> COC(=O)c1ccccc1S(=O)c1snnc1C (centres undefined)
    -1.3, -5.5, -5.5, 6%, -9, -4, 2, 0.2, 4, 2
> CCN(CC)c1nc(Nc2ccccc2)nc(Oc2ccc(=O)n(C)n2)n1
    nt, nt, ?, -10%, 14, 3, nt, -0.3, 18, nt
> Cc1cccc(C)c1NC(=S)/N=C/N(C)C
    -0.8, -1.8, nt, 25%, 8, -2, 6, 0.8, -7, 9
> COc1ccc(CCNCC2C(Oc3ccc(Cl)cc3)C(=O)N2c2ccccc2C)cc1OC (centres undefined)
    -3.8, 5.7, ?, nt, -6, -3, -66, 0.4, 13, -30
> CCc1c(C(=O)N/N=C/c2ccc(C)o2)csc1C
    nt, nt, ?, 26%, 26, -3, nt, 1.3, -14, nt
> Cc1noc(C)c1S(=O)(=O)Nc1ccc(C(=O)N2CCN(c3ccc(Cl)cc3)CC2)cc1
    -1.5, nt, -0.4, -6%, 11, 9, -41, 0.1, -5, -36
> O=C(CCS(=O)(=O)c1ccc(Br)cc1)Nc1ccc2c(c1)OCO2
    nt, nt, 1.0, 23%, 6, -5, nt, 0.1, 0, nt
> Cc1ccc(C)c(NC(=O)c2ccccc2Sc2ccc([N+](=O)[O-])cc2Cl)c1
    -5.1, 2.8, ?, nt, 4, 1, -11, -0.8, 29, -8
> C=C1Cn2c(nnc2-c2ccc(Cl)cc2)S1
    1.6, -1.9, ?, 73%, 3, -8, 8, -0.1, -2, 11
> CCOC(=O)CSc1nc2ccccc2c(=O)n1CC1COc2ccccc2O1 (centres undefined)
    nt, nt, -1.0, -2%, ?, -3, nt, 1.2, 22, nt
> COC(=O)c1cc(N=Nc2sc(N)nc2C)cc(C(=O)OC)c1
    -1.2, -34, -3.8, -2%, -2, 1, 2, 1.5, -8, 5
> O=C(CSc1nc2ccsc2c(=O)n1CC1CCC(C(=O)O)CC1)c1ccc(F)cc1 (centres undefined)
    0.6, -2.0, 4.1, nt, -26, -7, 7, 0.5, -11, 19
> CCOC(=O)c1ccc(Cl)c(S(=O)(=O)N2CCCC2)c1
    -5.5, 0.0, 3.2, -4%, 0, 0, -23, 0.2, -4, -21
> Cc1cccc(CS(=O)(=O)Cc2ccc(C(=O)O)o2)c1
    nt, nt, 2.3, 1%, -11, -6, nt, 1.2, -22, nt
> CC(Oc1ccccc1)C(=O)NC1CCN(Cc2ccccc2)CC1 (centres undefined)
    nt, nt, 3.1, 0%, -11, nt, nt, 0.0, 39, nt
> CS(=O)(=O)CCC(C(=O)n1nnc2ccccc21)N1C(=O)c2ccccc2C1=O (centres undefined)
    nt, nt, 1.8, -1%, 0, -4, nt, 0.3, -6, nt
> CC1CCN(S(=O)(=O)c2cccc(C(=O)NCC3CCCO3)c2)CC1 (centres undefined)
    -0.9, 0.5, -0.1, 0%, 5, 0, 3, -0.1, -11, -4
> Cc1ccc2c(C(=O)CN3CCN(c4ccccc4)CC3)c(C)[nH]c2c1
    nt, nt, -2.3, 4%, -6, 0, nt, 0.3, 16, nt
> Cc1cccc(OCC(=O)NNC(=O)c2ccc3nc[nH]c3c2)c1
    -0.3, 0.5, nt, 2%, nt, 0, 6, 0.2, nt, 2
> COc1ccc(C(=O)Nc2cc3c(cc2C(=O)O)OCCCO3)c(OC)c1
    2.6, -2.5, 0.9, nt, -3, -7, -12, 0.3, 9, -9
> CN1CC(=O)N(CC(=O)Nc2ccc(SC(F)F)cc2)C1=O
    -0.9, 0.3, -2.8, -2%, 0, -2, -15, -0.8, -8, -1
> C=CCNC(=S)N/N=C/c1ccc(-c2cc(Cl)ccc2Cl)o1
    nt, nt, -0.1, -6%, -3, 6, nt, 1.2, 17, nt
> NC(=O)c1nn(Cc2ccccc2)c(=O)c2ccccc12
    1.8, -0.9, 2.2, nt, 5, -2, 4, -0.1, -9, -7
> Cn1cc(S(=O)(=O)Nc2ccc(F)c(Cl)c2)c(=O)n(C)c1=O
    -1.1, -4.1, -2.2, nt, -2, 0, 9, 1.7, -7, 3
> CCCCNc1c(-c2ccc(SC3CCCCC3)c(OC)c2)nc2ccc(C)cn12
    0.2, 5.2&5.2, nt, nt, nt, 19, -21, -1.8, nt, -11
> CC(C)CC(=O)Nc1ccc(N2CCN(S(C)(=O)=O)CC2)cc1
    nt, nt, 6.1, 19%, -7, -3, nt, 2.2, 0, nt
> CCOC(=O)C1(Cc2ccccc2C)CCCN(Cc2ccc(NC(C)=O)cc2)C1 (centres undefined)
    -5.7, 2.0, 0.2, nt, -26, 0, -6, 0.2, 1, 3
> Cc1ccc(S(=O)(=O)N(C)c2ccccc2C(=O)Nc2ccc3c(c2)OCCO3)cc1
    8.3, 1.3, -2.0, -1%, 15, 0, -11, 0.8, -1, -17
> Cc1ccc(C(=O)N/C(=C\c2cn(C)c3ccccc23)C(=O)NCCCN2CCOCC2)cc1
    0.6, 1.2, 10, 3%, -24, -14, 9, 0.5, -5, 5
> O=C(NC(=S)Nc1cccc(Cl)c1N1CCCC1)c1ccc(-c2cccc([N+](=O)[O-])c2)o1
    10, 4.1, -3.3, -7%&3%, 2, 28, 2, 0.3, 19, -8
> O=c1[nH]c2cc3c(cc2cc1C(c1nnnn1Cc1ccccc1)N1CCN2CCCC2C1)OCCO3 (centres undefined)
    nt, nt, -0.6, 0%, 5, nt, nt, nt, 6, nt
> O=C(NC1CCCc2ccccc21)C1CCN(S(=O)(=O)c2ccccc2)CC1 (centres undefined)
    nt, nt, ?, nt, -4, 2, nt, 0.4, -8, nt
> COc1ccc2[nH]c3c(c2c1)CCN1C(=O)N([C@@H](C)C(=O)NC2CCN(Cc4ccccc4)CC2)C(=O)[C@]31C
    10, 21, 2.6, nt, 0, nt, -3, -0.1, 64*, 3
> O=C(/C=C/c1ccco1)NCC1CCCO1 (centres undefined)
    nt, nt, -4.6, 25%, 7, 3, nt, 0.4, -17, nt
> Cc1nccc(-c2sc(-c3cccs3)nc2C)n1
    -4.4, -0.7, -0.6, 1%, -5, 1, 1, -1.0, 5, -11
> c1cnc2ccc(C(c3nnnn3C3CCCCC3)N3CCN4CCCC4C3)cc2c1 (centres undefined)
    nt, nt, 1.2, 0%, 2, -9, nt, -0.2, -35, nt
> CC(=O)c1cccc(OC(=O)C2=CC=CN3CCS(=O)(=O)N=C23)c1
    nt, 0.7, nt, 11%, nt, -2, nt, -0.2, nt, nt
> Nc1nc(-c2cccc(Br)c2)cs1
    nt, nt, 2.0, -2%, 6, -18, nt, 0.7, -11, nt
> CCCCNC(=O)c1onc(CSc2ccc(F)cc2)c1C(=O)NCCCC
    2.7, -12, 4.1, nt, -14, -1, -17, -0.4, 18, 4
> O=c1cc(CN2CCN(Cc3ccccc3)CC2)c2ccc(O)c(O)c2o1
    -6.8, 3.0, -1.4, 31%, 88*, -3, -2, 0.7, 51, 28
> O=C(Cc1ccc(-c2ccccc2)cc1)OCC(=O)N1CCCC1=O
    -1.3, -2.8, -0.6, ?, -8, -5, -15, 0.3, -18, -13
> O=C(O)CCCC(=O)N1CCN(c2nc(-c3ccccc3)c3ccccc3n2)CC1
    -3.2, 0.4, 20*, -3%, 28, -2, -14, 0.7, 7, -13
> Cc1cc(C)c(C2=CC(=O)C[C@H](c3ccc4c(c3)OCO4)C2)c(C)c1
    -21, -3.8, nt, nt, nt, 0, -9, 0.9, nt, -4
> CS(=O)(=O)c1nc(S(=O)(=O)c2ccc(Cl)cc2)c(N2CCC(O)CC2)s1
    -2.3, 2.5, -1.2, nt, 1, -5, 7, -1.0, -18, 3
> CC(C)n1cc(/C=C2/NC(=O)NC2=O)c2ccccc21
    1.8, 0.2, 3.4, 6%, 7, -3, 3, -0.1, -16, 15

In the list so far, 7 have an aryl thioether with sulfur outside any ring:
Each structure is followed by: Ecoli rRNA inh RFP, MLL AF4-AF9 inh, RanGTP-Impb inh, Vif TR-FRET, Calb FLC, Beta apoptosis, Ecoli rRNA inh OD600, A1 inh, T cruzi repl, Ecoli rRNA inh
> CCn1c(SCC(=O)N2CCCCC2C)nc2c1c(=O)n(C)c(=O)n2C (centres undefined)
    -0.5, -21, -7.1, nt, -15, 5, 0, -0.1, -11, -1
> Cc1ccc(C)c(NC(=O)c2ccccc2Sc2ccc([N+](=O)[O-])cc2Cl)c1
    -5.1, 2.8, ?, nt, 4, 1, -11, -0.8, 29, -8
> CCOC(=O)CSc1nc2ccccc2c(=O)n1CC1COc2ccccc2O1 (centres undefined)
    nt, nt, -1.0, -2%, ?, -3, nt, 1.2, 22, nt
> O=C(CSc1nc2ccsc2c(=O)n1CC1CCC(C(=O)O)CC1)c1ccc(F)cc1 (centres undefined)
    0.6, -2.0, 4.1, nt, -26, -7, 7, 0.5, -11, 19
> CN1CC(=O)N(CC(=O)Nc2ccc(SC(F)F)cc2)C1=O
    -0.9, 0.3, -2.8, -2%, 0, -2, -15, -0.8, -8, -1
> CCCCNc1c(-c2ccc(SC3CCCCC3)c(OC)c2)nc2ccc(C)cn12
    0.2, 5.2&5.2, nt, nt, nt, 19, -21, -1.8, nt, -11
> CCCCNC(=O)c1onc(CSc2ccc(F)cc2)c1C(=O)NCCCC
    2.7, -12, 4.1, nt, -14, -1, -17, -0.4, 18, 4
